# Sfp PPTase inh – qHTS Assay for Inhibitors of Bacillus subtilis Sfp phosphopantetheinyl transferase (PPTase); 4'-phosphopantetheinyl transferase ffp (Bacillus subtilis), Q9F4F7; AID 1490, 2009; Biochemical Sfp PPTase activity, qHTS; actives 3.5% (n = 310,000); Potency, µM, inactives show max response, negative = inhibition, most hits filed as inhibitors; active = well fitted inhibition curve with a large enough effect; inconclusive = small, poorly fitted or top-dose-only effect, or another doubt; inactive = no such curve, though single readings can be large or run the other way;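 note: the enzyme is Sfp with the accession as filed and its product quenches rhodamine fluorescence; potency is the fitted concentration of half-maximal effect; 0% = enzyme reaction without inhibitor and -100% = no enzyme wells; top concentration of the series not given in the record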
#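 Buffer: 50 mM Hepes-Na pH 7.6, 10 mM MgCl2, 0.01% Nonidet P-40, 0.01% BSA. Enzyme 15 nM, pre-exposed to compound 15 min; substrates then added and fluorescence change tracked over 30 min.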
# ClpP mod – qHTS Assay for Activators of ClpP; ATP-dependent Clp protease proteolytic subunit (Bacillus subtilis (strain 168)), P80244; actives 1.9% (n = 340,000); Potency, µM (top dose mostly 57.5 µM), without a hit: top-dose activity change, negative = active; purified B. subtilis ClpP, FRET peptide cleavage, 20 min; active = well fitted falling curve with a large enough effect; inconclusive = small, poorly fitted or top-dose-only effect; inactive = no such curve, though single readings can be large or run the other way; note: potency is the fitted concentration of half-maximal effect; the source files actives as falling curves though it sought activators and does not explain the sign; nearly all actives have a fitted effect of over 65% in size; many hits overshoot -100%
# Target sequence (P80244 whole entry, looked up): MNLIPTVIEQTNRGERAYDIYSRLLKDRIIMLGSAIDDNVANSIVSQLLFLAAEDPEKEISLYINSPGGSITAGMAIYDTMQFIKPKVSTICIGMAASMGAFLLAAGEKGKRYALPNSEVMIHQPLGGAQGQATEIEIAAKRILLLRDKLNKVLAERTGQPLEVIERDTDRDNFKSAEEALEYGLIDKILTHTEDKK
#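 Purified B. subtilis ClpP, 10 microg/mL final in Tris/HCl pH8 with KCl, BSA, glycerol and Tween-20, cleaved an Abz/nitrotyrosine-quenched decapeptide. Fluorescence (ex 320, em 430) was read at 0 and 20 min at room temperature. Delta was normalized to 5.8 microM ADEP and DMSO/no-enzyme controls.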
# Menin-MLL FL inh – qHTS Assay for Inhibitors Targeting the Menin-MLL Interaction in MLL Related Leukemias: Competition With Fluorescein Labeled MLL-derived Peptide. FP activity change, % at 61.4 µM. AID 1766, 2009. Fluorescence polarization, fluorescein-MLL peptide displacement from menin. 290,000 tested, under 10 active; inconclusive = falling polarisation curve, or a change in total fluorescence; inactive = total fluorescence flat and polarisation flat or rising; no compound was filed as active; the % refers to the polarisation; negative = inhibition;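 note: % of control where 0% means no effect; inhibitors lower the polarisation; unlabelled MLL peptide was the positive control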
# PINK1 expr mod – A Quantitative High throughput Screen to Identify Chemical Modulators of PINK1 Expression. PINK1 immunofluorescence, high-content cytometry, 24 h. Potency, µM (titrated, usually from 76.6 µM), for the others: at the highest dose activation (PINK1 increase), actives largely listed as activators. actives 0.2% (n = 410,000); active = well fitted activation curve with a large enough effect; inconclusive = small, poorly fitted or top-dose-only effect; inactive = flat fitted curve, though single readings scatter; cell line not stated here;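 note: potency is the fitted concentration of half-maximal effect; % of control where 0% means no effect; nearly all actives have a fitted effect of over 65% in size; a mitochondrial uncoupler was the plate control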
#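 Compound titrations (5 concentrations, 24 h) on a stable cell line; DMSO and CCCP controls. Endpoint: fixed-cell PINK1 immunofluorescence with mitochondrial, cell and nuclear markers, scanned by microplate cytometer.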
# TRPML1 agonist – qHTS for Agonists of the Human Mucolipin Transient Receptor Potential 1 (TRPML1). actives 0.12% (n = 410,000). AID 624414, 2012. Mucolipin-1 (Homo sapiens), Q9GZU1. TRPML1-expressing cells, Ca2+ dye fluorescence, FDSS; host cell line not named in the record; reference of the full effect not given here. activation, % (test concentration not listed); in the data active = activation above about 50%; inconclusive = about 30% to 50%; inactive = below about 30%; note: 0% is about no effect; the text of the record puts the active cut at 80%
# Target sequence (Q9GZU1 whole entry, looked up): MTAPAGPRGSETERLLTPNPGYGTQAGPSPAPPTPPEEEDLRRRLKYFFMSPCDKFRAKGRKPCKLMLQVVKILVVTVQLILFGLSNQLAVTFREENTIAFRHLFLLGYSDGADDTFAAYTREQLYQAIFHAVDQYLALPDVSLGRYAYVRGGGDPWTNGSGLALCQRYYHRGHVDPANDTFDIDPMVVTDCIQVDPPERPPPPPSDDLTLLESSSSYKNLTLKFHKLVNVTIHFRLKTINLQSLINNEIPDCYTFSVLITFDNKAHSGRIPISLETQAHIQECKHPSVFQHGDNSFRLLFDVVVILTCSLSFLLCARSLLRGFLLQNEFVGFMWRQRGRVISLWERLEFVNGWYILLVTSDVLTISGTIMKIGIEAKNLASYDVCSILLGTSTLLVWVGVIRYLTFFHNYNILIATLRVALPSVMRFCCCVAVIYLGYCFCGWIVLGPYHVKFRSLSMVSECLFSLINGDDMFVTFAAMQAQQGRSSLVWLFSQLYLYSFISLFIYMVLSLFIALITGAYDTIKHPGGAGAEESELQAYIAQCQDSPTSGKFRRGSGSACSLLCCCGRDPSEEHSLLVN
#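 Tet-induced TRPML1-DL cells, 1,500 per well, cultured overnight, were loaded with a no-wash Ca2+ dye for 45–90 min. Calcium fluorescence was recorded on the FDSS for 110 s after compound addition, before the EC80 agonist (4 uM 54-4) was added.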
# TRPML1 blocker – qHTS for Inhibitors of the Human Mucolipin Transient Receptor Potential 1 (TRPML1); activity change, negative = inhibition, % (test concentration not listed); Mucolipin-1 (Homo sapiens), Q9GZU1; TRPML1-inducible cells, Ca2+ dye fluorescence, FDSS; active compounds read low; inhibition of EC80 agonist-evoked calcium signal; actives 0.02% (n = 390,000); in the data active means activity change below about -50%; inconclusive means about -30% to -50%; inactive means above about -30%;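 note: stimulus is agonist 54-4 at its EC80 concentration; % is set by controls: 0 for no effect and ±100 for the full control effect; compound concentration not given in the record; the text of the record puts the active cut at -80%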
#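 Calcium fluorescence in TRPML1-DL cells induced overnight with Tet: a 110 s read after compound pin addition, then a 110 s antagonist read after challenge with 54-4 at 4 uM final (EC80).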
# TRPV1 potentiator – HTS Assay for Compounds that Act as Potentiators of the Vanilloid Receptor 1; Transient receptor potential cation channel subfamily V member 1 (Homo sapiens), Q8NER1; TRPV1-expressing cells, Fluo-8 calcium influx, capsaicin EC20 potentiation; host cell line not named in the record; control for the full effect not named in the record; potentiation, % at 8.33 µM; actives 0.02% (n = 320,000); AID 540277, 2011; active means potentiation above 80%; inconclusive means 30% to 80%; inactive means below 30%; note: 0% is about no effect
#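 Cells expressing TRPV1 were dye-loaded with Fluo-8 and read kinetically: 10 s baseline, 3 min after compound (agonist portion), then 2 min after EC20 capsaicin (allosteric enhancer portion). Calcium-bound dye fluorescence at 480/520 nm.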
# Numbers without * were called inactive; ? = inconclusive; . = no result given; [ ] = remark or other dose.
SMILES,Sfp PPTase inh,ClpP mod,Menin-MLL FL inh,PINK1 expr mod,TRPML1 agonist,TRPML1 blocker,TRPV1 potentiator
CCOC(=O)C1(CCC(C)C)CC(CSc2nc3ccccc3[nH]2)OC1=O (stereo not given),8%,0.2%,2.3,3.8%[38.3 µM],0.7,2,-2
COc1ccc(N2C(=O)c3cccc4cccc(c34)C2=O)cc1,14%,0.1%,-3.3,-1.9%,0.3,20,0
CC1=C(C(=O)Nc2ccccc2C(=O)NCc2ccccc2)SCCO1,-3%,0.5%,.,0.8%,0.3,20,-4
CCOC(=O)c1cnc(SC)nc1Sc1ccccc1,-9%,3.1%,3.6,8.6%,1.1,17,-3
CCN(CC)CCNC(=O)c1ccc(NC(=O)C2CC(=O)N(c3ccc4c(c3)OCCO4)C2)cc1 (stereo not given),.,.,.,-3.9%,1.4,11,18
COc1ccccc1S(=O)(=O)Cc1ccc(C(=O)N2CCCC2)o1,9%,-2.1%,-1.5,1.1%,1.5,5,-8
Cc1ccc2nc(-c3cccc(Br)c3)cc(C(=O)Nn3cnnc3)c2c1,0%,.,1.9,3.2%,-0.4,17,?
Cc1[nH]n(-c2ccccc2)c(=O)c1/C=N/NC(=O)COc1ccccc1[N+](=O)[O-],21%,-0.6%,3.0,1.6%,0.3,-1,18
Cc1ccc(-c2nc(-c3cccnc3)sc2CC(=O)Nc2ccc(C)c(Cl)c2)cc1,-26%,-14%,21,3.6%,-0.2,-5,5
O=C(COc1cccc(Cl)c1)NNC(=S)Nc1ccccc1,-4%,0.8%,5.4,5.4%,1.3,-17,6
O=C(NC1CC2CCCC(C1)N2Cc1ccccc1)C1CCCCC1 (stereo not given),22%,-0.1%,-0.4,-2.0%,0.0,-3,-3
CCOC(=O)C1=NN2C(O)C3(C)CC(C(=O)OCC)=NN3C(O)C2(C)C1 (stereo not given),.,0.0%,.,1.6%,-0.1,-4,.
S=C(Nc1cccc(Cl)c1)Nc1cccc2cnccc12,1.4µM*,-3.1%,-0.6,?,-1.7,-7,-7
Cc1ccccc1-n1nc(C)c2cc(C(=O)N3CCN(S(=O)(=O)c4ccccc4)CC3)sc21,3%,1.8%,?,0.9%,-0.2,6,-7
Cc1ccccc1S(=O)(=O)NC(=O)C1(C)CCN1C(=O)C1(c2ccc(Cl)cc2)CCC1 (stereo not given),.,-0.8%,.,-0.6%,-0.4,.,.
Cn1c(=O)c2c(ncn2CC(=O)Nc2nccs2)n(C)c1=O,-5%,.,-0.3,-1.7%,0.6,-6,18
Cc1nnc(-c2ccc(N3CCOCC3)c([N+](=O)[O-])c2)o1,.,3.9%,.,0.8%,-0.6,-1,-11
C[N+](C)(C)CC(=O)N/N=C/c1c2ccccc2cc2ccccc12,-2%,-1.5%,.,-0.2%,-0.3,-9,2
CCOC(=O)Cn1c(=O)c2c(nc3n2CCCN3Cc2ccccc2)n(C)c1=O,16%,.,6.5,3.5%,1.6,4,-24
CN(CC(=O)O/N=C(\N)c1ccc([N+](=O)[O-])cc1)S(=O)(=O)c1ccc2ccccc2c1,-5%,-0.2%,0.3,?,0.6,12,13
Cc1ccc(-c2nnc(SCC(=O)NCc3ccccc3)nc2-c2ccc(C)cc2)cc1,.,-1.1%,.,0.3%,2.9,40,.
NC(=O)CSc1nnc(CNc2cccc(Cl)c2)n1CCc1ccccc1,-8%,-2.1%,1.1,-2.6%,0.5,21,5
Cc1cc(C)c(C)c(S(=O)(=O)N[C@@H](C)C(=O)OCC(=O)NC2CCCC(C)C2C)c1C (stereo not given in full),.,-1.8%,.,1.4%,2.2,4,.
COc1ccc(Cl)cc1NC(=O)CN(C)C(=O)c1sccc1-c1ccccc1,.,2.5%,.,-0.1%,0.5,-8,-13
O=S(=O)(NCc1cc(-c2ccc(Cl)cc2)no1)c1ccc(Cl)cc1,22%,0.9%,4.2,1.5%,1.5,-4,.

# Next section
SMILES,Sfp PPTase inh,ClpP mod,Menin-MLL FL inh,PINK1 expr mod,TRPML1 agonist,TRPML1 blocker,TRPV1 potentiator
CC(=O)n1nc(-c2cccnc2)nc1NCc1ccc(F)cc1,.,-1.2%,.,5.9%,-0.5,-4,.
CC(c1nccs1)N(C)C(=O)CCc1nnc(-c2ccc(-c3ccccc3)cc2)o1 (stereo not given),7%,4.4%,3.6,2.6%,-0.6,4,3
S=c1[nH]nc(COc2ccccc2)n1/N=C/c1ccco1,-27%,.,0.5,-1.3%,-0.6,-2,-1
CCCCC(=O)Nc1ccc(C(=O)NNC(=O)c2ccccc2Br)cc1,6%,-2.7%,6.0,-4.3%[38.3 µM],0.2,-5,-12
Cc1ccc(S(=O)(=O)N[C@@H](C)C(=O)OCC(=O)N2c3ccccc3NC(=O)C2(C)C)cc1,.,1.2%,.,1.9%,-0.4,21,6
COc1cc(NC(=O)CN2CCN(CC(=O)Nc3ccc(F)cc3)CC2)cc(OC)c1,.,-2.1%,.,1.4%,-0.6,8,.
CC12c3ccccc3C(c3ccccc31)C1C(=O)N(Cc3cccnc3)C(=O)C12 (stereo not given),12%,-0.3%,-0.5,7.3%[38.3 µM],0.0,10,-22
COc1ccccc1CNC(=O)C1CC(c2ccc([N+](=O)[O-])cc2)=NO1 (stereo not given),13%,1.1%,0.9,-0.2%,0.3,18,8
CC(=O)c1ccc(C(=O)N2CCCC(CCC(=O)N(C)CCc3ccccn3)C2)s1 (stereo not given),16%,.,2.5,3.4%,-0.3,-6,3
COc1ccc(OC)c(NC(=O)c2ccc3c(=O)n(CCc4ccccc4)c(=S)[nH]c3c2)c1,3%,-14%,3.6,16%,-0.2,-1,-9
Cc1nnsc1SCCNC(=O)c1ccc(F)cc1,7%,-0.6%,0.6,1.1%,-0.9,-8,-17
Cc1ccc(S(=O)(=O)[N-]c2nc3ccccc3nc2-n2cc[n+](CCC(C)C)c2)cc1,-13%,?,4.4,.,-0.1,9,7
CC(=O)Nc1cccc(Nc2nc3ccccc3n3c(C)nnc23)c1,.,33%,.,15%,0.1,-17,.
O=C(COc1ccc(F)cc1)Nc1nnc(S(=O)(=O)N2CCc3ccccc32)s1,.,-1.5%,.,2.6%,2.3,13,.
CCOc1ccccc1N1CCN(C(=O)c2cc(-c3cc(OC)ccc3OC)nc3ccccc23)CC1,8%,-24%,.,-1.1%,0.4,-11,10
O=C(Nc1ccc2c(c1)nc1n2CCOC1)c1ccco1,5%,-0.9%,0.9,0.2%,-0.8,2,-6
Cc1ccc(C)c(NC(=O)COC(=O)CCNC(=O)c2ccco2)c1,.,-1.5%,.,-0.8%,-0.1,15,-1
Cc1nc(-c2ccccc2)sc1C(=O)Nc1ccccc1F,11%,-0.3%,1.4,-0.8%,0.2,4,3
O=S(=O)(Nc1nc2ccccc2nc1Cl)c1cccc(C(F)(F)F)c1,21%,.,2.8,?,0.5,-12,2
O=C(CCCSc1nc2ccccc2[nH]1)NCc1ccccc1,5%,1.3%,-0.6,-0.5%,-0.6,8,-6
COc1ccc(C(CNC(=O)C(C)c2ccc3cc(OC)ccc3c2)N(C)C)cc1 (stereo not given),2%,.,1.8,0.8%,0.3,20,3
O=C(O)CSCCc1ccccn1,9%,-0.5%,0.3,-1.2%,-0.2,50,-25
COCCn1c(=O)[nH]c(=O)c2c1nc(-c1cc(Br)c3c(c1)OCO3)n2Cc1ccccc1,5%,.,-4.4,1.3%,0.6,17,16
Cc1cc(C(=O)N2CCCC(N3CCN(c4ccc(F)cc4)CC3)C2)c(C)o1 (stereo not given),13%,-2.0%,-2.5,1.0%,0.7,-16,27
CCC1C(=O)NCCN1C(=O)c1ccc2nc(Cc3cccc(Cl)c3)oc2c1 (stereo not given),-9%,1.1%,-2.2,0.5%,0.9,-7,-3

# Reprinted at random: 4 compounds from above, in no set order.
SMILES,Sfp PPTase inh,ClpP mod,Menin-MLL FL inh,PINK1 expr mod,TRPML1 agonist,TRPML1 blocker,TRPV1 potentiator
CC(=O)n1nc(-c2cccnc2)nc1NCc1ccc(F)cc1,.,-1.2%,.,5.9%,-0.5,-4,.
O=C(COc1ccc(F)cc1)Nc1nnc(S(=O)(=O)N2CCc3ccccc32)s1,.,-1.5%,.,2.6%,2.3,13,.
CCOc1ccccc1N1CCN(C(=O)c2cc(-c3cc(OC)ccc3OC)nc3ccccc23)CC1,8%,-24%,.,-1.1%,0.4,-11,10
Cc1ccc(S(=O)(=O)N[C@@H](C)C(=O)OCC(=O)N2c3ccccc3NC(=O)C2(C)C)cc1,.,1.2%,.,1.9%,-0.4,21,6

# (next part)
SMILES,Sfp PPTase inh,ClpP mod,Menin-MLL FL inh,PINK1 expr mod,TRPML1 agonist,TRPML1 blocker,TRPV1 potentiator
COc1ccc(OCC(=O)Nc2ccc(N3CCOCC3)c(Cl)c2)cc1,21%,0.7%,2.2,-0.3%,0.2,6,6
CCS(=O)(=O)N1CC(=O)N(c2cccc(Cl)c2C)C(C)(C(=O)NC2CCCCC2)C1 (stereo not given),.,-1.6%,.,-1.4%,0.2,5,.
CC(C)n1cnc2c(NCc3ccccc3)cc(Cc3ccc(F)cc3)cc21,.,-7.5%,.,-1.7%,-0.5,28,5
Cc1ccc(NC(=O)Nc2ccc(F)cc2)nc1,-2%,-0.1%,4.7,0.1%,0.2,10,-8
O=C(C(Br)=Cc1ccccc1)c1ccccc1,.,-2.7%,.,-3.7%,2.8,18,.
CC(=O)Nc1ccc(NC(=O)COc2ccccc2C(=O)Nc2cccc(Cl)c2Cl)cc1,2%,-1.3%,.,17%,0.6,60,2
O=C(CNC(=O)Cc1ccccc1)NCC(=O)OCC(=O)c1ccccc1Cl,-4%,0.6%,4.4,?,0.5,6,-3
CC(C)(C)C(=O)Nc1nc2ccc(S(C)(=O)=O)cc2s1,-2%,.,-5.6,-0.4%,2.7,-13,24

# Assay outcomes (PubChem)
